LANA-nucl inh = inhibitors of KSHV LANA binding to nucleosomes. hit rate 0.3% among 51,000. FITC-LANA1-23 / chicken nucleosome fluorescence polarization; active compounds read low. z-score (no concentration beside the values);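 active = both repeat wells score below -2 in polarization z-score versus plate sample wells, excluding overly bright wells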;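 note: 100 nL library stock added to about 30 µL; numbers are from one replicate; some results filed as inactive read as strong as hits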
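Assay system: purified chicken nucleosomes with FITC-labelled LANA N-terminal peptide (1-23) / Probe or stimulus: 50 nM FITC-LANA1-23 probe / Compound dosing: pin-transferred compound, 100 nL / Times: compound with peptide–nucleosome mix 10–45 min at room temperature / Technique: fluorescence polarization, 480 nm excitation, 535 nm parallel and perpendicular emission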
BasE inh = blocks the Acinetobacter baumannii siderophore enzyme BasE; purified BasE, fluorescence polarization binding displacement; inhibition, % (test concentration not listed); hit rate 0.1% among 84,000; AID 485350;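 active = both replicates above 25% with normal brightness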;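 note: 0% = negative plate control signal and 100% = positive plate control signal; stock transfer was 100 nL into about 30 µL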
The depositor's hits bear a star; nt = no result given; & = joins results of further samples. Not all compounds are listed, so the mix of outcomes need not match the whole.

Compound,LANA-nucl inh,BasE inh
Cc1cc(C(=O)N/N=C/c2c(C)nc3sccn23)c(C)o1,nt,4.3
Cc1cc(C)n(C(=O)c2ccoc2C)n1,0.659,2.1
CC(C)CCN1Cc2ccccc2C1,0.273,-4.0
N#CC1C(c2cccs2)C(C(N)=O)C(=O)NC1(O)c1ccccc1 (stereo unspecified),-0.055,-0.7
O=C(CSc1ccc(S(=O)(=O)N2CCCCC2)cn1)NCc1ccco1,nt,-1.1
CCNc1nc(=S)nc(NCC)[nH]1,2.17,-0.3
Cc1noc(C)c1Cn1cnc2scc(-c3ccc(Br)cc3)c2c1=O,nt,0.5
O=C(CCN1C(=O)C2C3C=CC(C3)C2C1=O)NCCc1ccccc1 (stereo unspecified),1.62,-2.8
CCOC(=O)C1CCCN(Cc2cccc(C)c2)C1 (stereo unspecified),0.261,-2.1
CCc1ccccc1Nc1nc(N)nc(CNc2ccccc2)n1,nt,-2.8
CCOC(=O)c1cc(NS(=O)(=O)c2ccccc2)ccc1N1CCCCC1,0.194,-3.8
CC(C)(C)C(=O)CC(O)(c1ccccc1)C(F)(F)F (stereo unspecified),-1.08,0.2
CCSc1nc2ccccc2c(=O)n1Cc1ccco1,nt,-0.8
CCCN1CCN(C(=O)CC(NC(=O)c2ccccc2Cl)c2ccccc2)CC1 (stereo unspecified),nt,2.0
O=C(c1cccc(Cl)c1Cl)N1CCOCC1,-0.111,0.9
Cc1ccc(NC(=O)CN(C)C(=O)CSc2nccn2C)cc1,nt,1.8
O=C(O)C(Cc1c[nH]c2ccccc12)N1C(=O)C2C3C=CC(C3)C2C1=O (stereo unspecified),-0.587,2.0
COc1ccc(Cn2nnnc2C(c2cccs2)N2CCOCC2)cc1 (stereo unspecified),-0.022,-1.7
O=C(NCC1CCCO1)C1CCC(=O)N1Cc1ccc(F)cc1 (stereo unspecified),0.794,0.4
COc1ccc(OC)c(NC(=O)c2ccccc2)c1,-0.906,0.3

Gathered by group, the compounds so far with fluorine
Compound,LANA-nucl inh,BasE inh
CC(C)(C)C(=O)CC(O)(c1ccccc1)C(F)(F)F (stereo unspecified),-1.08,0.2
O=C(NCC1CCCO1)C1CCC(=O)N1Cc1ccc(F)cc1 (stereo unspecified),0.794,0.4

Next section
Compound,LANA-nucl inh,BasE inh
CC1CN(Cc2csc(Nc3ccccc3)n2)CC(C)O1 (stereo unspecified),nt,-4.5
Nc1cccc(CCc2nc3ccccc3[nH]2)c1,-0.223,3.2
Cc1coc2c(Cl)cc(Cl)cc2c1=O,-0.596,0.3
S=c1[nH]nc(Cc2ccccc2)n1Cc1ccccc1,-0.282,1.6&1.4
Cc1ccc2cc(CCC(=O)O)c(=O)[nH]c2c1,-0.534,0.8
COc1ccc(S(N)(=O)=O)cc1C(=O)OCC(=O)N1c2ccccc2NC(=O)C1(C)C,nt,-2.0
C=CCn1c(NCCO)nc2sc3c(c2c1=O)CCC3,0.065,-1.1
CCc1ccc(N(CC(=O)NCC2CCCO2)S(C)(=O)=O)cc1 (stereo unspecified),0.694,-1.8
CCSc1nc2sc3c(c2c2n[nH]c(=S)n12)CCCC3,nt,-1.3
CC(C)OC(=O)c1cc(C(=O)O)c(C(=O)OC(C)C)cc1C(=O)O,-0.399,3.5
O=C(CC1SC(=O)NC1=O)Nc1cccc(C(F)(F)F)c1 (stereo unspecified),nt,-2.7
CC(c1nc2ccccc2c(=O)[nH]1)N(C)CCOc1ccc(Cl)cc1 (stereo unspecified),nt,2.0
O=C1c2ccccc2C(=O)C1C(c1ccccc1)C1C(=O)c2ccccc2C1=O,nt,3.7
O=C(CSc1cccc[n+]1[O-])NC(=O)c1ccc(OC(F)F)cc1,nt,-0.5
CC(OC(=O)c1ccc(O)cc1)C(=O)c1ccccc1 (stereo unspecified),nt,-1.7
COc1ccc(N2CC(C)(C)C2=O)cc1,-0.453,nt
Cc1nc(SCC(=O)O)c2c3c(sc2n1)CCCC3,nt,-1.7
N#Cc1ccc(C(=O)Nc2c(C(=O)c3cccs3)oc3ccccc23)cc1,nt,1.2
FC(F)(F)c1cccc(Nc2ncn[nH]2)c1,0.275,nt
Cc1ccc(/C=C/S(=O)(=O)NCC(=O)O)cc1,nt,0.2

Look-ups from the results shown.
BasE inh result of COc1ccc(S(N)(=O)=O)cc1C(=O)OCC(=O)N1c2ccccc2NC(=O)C1(C)C is entered as -2.0
BasE inh result of CC(OC(=O)c1ccc(O)cc1)C(=O)c1ccccc1 (stereo unspecified) is entered as -1.7

Continued.
Compound,LANA-nucl inh,BasE inh
CN(C)CCOc1ccc(/C(=C(/CCCl)c2ccccc2)c2ccccc2)cc1,-0.39&0.764,nt
Cc1nn(-c2ccccc2)c(N2CCCC2)c1/C=N/NC(=O)C1CC1,nt,-0.6
C=CCn1c(SC2CCCC2=O)nnc1-c1ccc(Cl)cc1 (stereo unspecified),nt,1.4
CSCCC1COC(c2cccn2Cc2ccccc2)=N1 (stereo unspecified),-0.227,1.7
Cc1cc(NC(=NC2CC2)c2ccccc2F)n(-c2ccccc2)n1,nt,0.8
O=C(Nc1ccccc1)N1CCCCC1c1cccnc1 (stereo unspecified),-0.277,6.0
CC(C)(O)C#Cc1ccc(C(=O)N2CCCC2C(=O)O)s1 (stereo unspecified),-0.46,3.3
Cc1c2cnn(-c3ccccc3)c(=O)c2c(C)n1C(C)C(=O)NCCN1CCCC1 (stereo unspecified),0.797,-1.5
CC(C)(C)C(=O)Nc1sccc1C#N,0.45,-0.2
Cc1ccc(-n2ccnc(NCCc3ccc(S(N)(=O)=O)cc3)c2=O)cc1,-0.229,0.3
CC1(C)CC(=O)C2=C(C1)NCN(Cc1ccccc1)C2,-1.63,1.1
Cc1nc(=S)[nH]c(C)c1CCC(=O)NCc1ccco1,nt,-0.6
Nc1nc(CCC(=O)O)cs1,-0.184,1.2
O=C(c1c[nH]c2ccccc12)C(c1ccccc1)N1CCCCC1 (stereo unspecified),nt,1.6
NCc1ccc(OCc2ccc(F)cc2)cc1,0.629,0.2
CSc1nc(NNC(=O)c2ccco2)c2c3c(sc2n1)COC(C)(C)C3,-0.18,0.2
Cc1ccc(O)c(C(=O)c2cc(-c3nc4ccccc4c(=O)[nH]3)n(C)c2)c1,nt,4.2
CC(C)Cn1c(SCC(=O)C(C)(C)C)nc2ccccc2c1=O,nt,-3.1
C/C(N)=C(/C#N)C(=O)CSc1cc(C)ccc1C,nt,1.4
CCN(CC)C(=O)C1CCN(Cc2cccc(OC)c2OC)CC1,-0.695,1.0

(cont.)
Compound,LANA-nucl inh,BasE inh
O=C1C2C3C=CC(C3)C2C(=O)N1CNc1ccccc1 (stereo unspecified),-0.654,1.4
CC1CC(C)CN(C(=O)Cn2c(=O)n(CCCCC(=O)NCc3ccco3)c(=O)c3ccccc32)C1 (stereo unspecified),0.481,1.3
c1ccc(-c2ccccc2NC2=NCCS2)cc1,nt,1.3
CCn1c(C)nc2cc(C(=O)NN=C3CCN(C)CC3)ccc21,nt,0.8
CN(C)c1ccc(-c2nnc(SCC3CCCO3)n2C)cc1 (stereo unspecified),0.552,0.8
COc1ccc(-n2cc[nH]c2=S)cc1,nt,0.3
O=C(/C=N/O)Nc1cccc(F)c1,nt,0.5
Nc1c(S(=O)(=O)c2ccc(Cl)cc2)c2cnn(-c3ccccc3)c(=O)c2n1CCCN1CCOCC1,nt,3.8
COc1ccc(N2CCN(CCCNC(=O)C3CCCN(S(=O)(=O)c4c(C)noc4C)C3)CC2)cc1 (stereo unspecified),0.0245,-0.1
CN(C1=NC(=O)/C(=C2/C(=O)N(C)c3ccccc32)S1)c1ccc(Cl)cc1,-1.02,-1.2
O=S(=O)(CCc1ccccc1)c1ccccc1,-0.7,0.9
c1ccc2c(COn3nnc4ccccc43)cccc2c1,0.202,1.0
NCCS,-0.201&1.18,0.2
Cc1oc(CO)cc1C(=O)O,nt,2.4
COc1ccc2c(c1)CCc1c-2nc2ccc(Br)cc2c1C(=O)O,nt,0.6
CC(Nc1ccccc1)N1C(=O)CCC1=O (stereo unspecified),0.637,0.9
Nc1cc(C(=O)O)ccc1Nc1ccccc1,0.095,0.3
COc1ccc(/C=N/n2cnnc2)cc1,nt,-3.3
CN1CCN(CCCN2C(=O)CSC2c2ccc(F)cc2)CC1 (stereo unspecified),nt,0.7
O=C(Nc1ccc(Cl)cc1)C1CC(=O)N(Cc2ccc(F)cc2)C1 (stereo unspecified),-0.345,nt

Continuation.
Compound,LANA-nucl inh,BasE inh
CN(c1ccccc1)C(c1ccc(F)cc1)c1nnnn1C1CCCC1 (stereo unspecified),-0.684,0.3
CCCn1c(=O)c(-c2noc(-c3ccc(Cl)cc3)n2)nn(-c2ccccc2)c1=O,-1.6,2.4
c1ccc(-c2nc3ccccn3c2NCC2CCCO2)cc1 (stereo unspecified),0.132,-1.2
Fc1ccc(C(NCCc2ccccc2)c2nnc(-c3ccccc3)o2)cc1 (stereo unspecified),-0.438,11.6
Cc1ccccc1OCC1=NN2C(=N)/C(=C\c3ccc(SCc4ccco4)o3)C(=O)N=C2S1,3.1,-2.9
Nc1nc(SCC(=O)NN(c2ccccc2)c2ccccc2)n[nH]1,nt,1.7
O=C(NC1CCCCC1)c1ccc(CS(=O)Cc2ccc(Cl)cc2)o1 (stereo unspecified),-0.22,-1.7
Clc1ccc(CSc2nc3ccccc3s2)cn1,0.968,nt
CC(Cc1ccccc1)NC(=O)CC(c1ccccc1)c1cc(Br)ccc1O (stereo unspecified),nt,2.6
CC(C)c1c(C#N)c(N)nc(SCC(=O)c2ccc(Cl)c(Cl)c2)c1C#N,nt,2.3
O=C(O)c1ccc(OC(=O)c2ccccc2)cc1,1.01,-0.6
CCNC(=S)N1CCC(C(=O)c2ccc3c(c2)OCCO3)CC1,0.682,-2.5
Cc1ccc(/C=N/n2cnc3sc(C)c(C)c3c2=O)o1,nt,0.3
O=C(O)CN1CC(=O)NC1=O,-1,-0.9
CC(C)(C)c1ccc(NC(=O)/C=C/c2ccc(-c3cccs3)s2)cc1,nt,2.9
CCC12CN3CC(CC)(CN(C1)C31C(=O)N(C)c3ccc(C)cc31)C2=O (stereo unspecified),-0.286,2.7
O=C(O)CCc1nc(-c2cccnc2)no1,0.112,2.8
CCCCn1nc(C)c(C(=O)NC2=NCCS2)c1Cl,nt,3.2
CC(C)CCOC(=O)c1cc2cc(Br)ccc2oc1=O,nt,3.3
Cc1c(C(=O)N2CCCCC2)sc(NC(=O)C(C)C)c1C#N,-0.067,1.3

Reformatted: 3 of the compounds above.
Results follow in this order: LANA-nucl inh, BasE inh
> c1ccc(-c2nc3ccccn3c2NCC2CCCO2)cc1 (stereo unspecified)
→ 0.132, -1.2
> Fc1ccc(C(NCCc2ccccc2)c2nnc(-c3ccccc3)o2)cc1 (stereo unspecified)
→ -0.438, 11.6
> Cc1ccccc1OCC1=NN2C(=N)/C(=C\c3ccc(SCc4ccco4)o3)C(=O)N=C2S1
→ 3.1, -2.9

Additional results
Compound,LANA-nucl inh,BasE inh
CNC(=O)C1C2C=CC3(O2)C1C(=O)N(C1CC1)C3C(=O)NCc1ccc(OC)cc1 (stereo unspecified),0.373,0.3
Cn1nc(C(=O)NCCN2CCOCC2)c2c1-c1ccccc1CC2,-0.63,-0.4
CCc1ccc(NC(=O)C2CCN(S(=O)(=O)c3c(C)noc3/C=C/N(C)C)CC2)cc1,-0.716,-3.4
CCSC1=N/C(=C\c2cc3c(cc2Br)OCO3)C(=O)S1,nt,-0.5
Cc1c(C(=O)Nc2ccccc2C#N)oc2ccccc12,0.514,5.9
COC(=O)COc1ccc(S(=O)(=O)c2ccc(OCC(=O)OC)cc2)cc1,1.35,0.8
CCN1C(=O)S/C(=C\c2cc(C)n(-c3ccccn3)c2C)C1=O,nt,3.5
CC1CCC2(CC1)NC(=O)N(NC(=O)CN1CCN(Cc3ccc4c(c3)OCO4)CC1)C2=O (stereo unspecified),nt,-3.2
CCOc1cc(Br)c(CC#N)cc1OCC,nt,0.3
CC(C)(C)S(=O)(=O)/C(C#N)=C/Nc1ccccn1,nt,-0.6
Cc1ccc(S(=O)(=O)NC2=NCN(C3CCN(Cc4ccccc4)CC3)CN2)cc1,nt,1.3
CN(CC(=O)N1CCc2ccccc21)C1CCS(=O)(=O)C1 (stereo unspecified),nt,1.8
CC(Sc1nnc(-c2cccs2)n1C1CC1)C(=O)N1CCNC1=O (stereo unspecified),nt,0.9
O=C(OCc1nc2ccccc2s1)C1CCN(S(=O)(=O)c2ccccc2C(F)(F)F)CC1,nt,2.4
NC(=O)c1nn(-c2ccccc2)c(=O)cc1O,-1,2.2
O=C(CCCn1ncn2c(cc3occc32)c1=O)NCc1ccccc1,0.0845,4.2
CC(C)(C)c1csc(-c2ccc(OC(F)(F)F)cc2)n1,nt,2.0
CCCCCCNc1nc(NCc2ccco2)nc(OCC)n1,0.301,0.4
CC1CN(C(=O)N2CCC(C(=O)N3CCN(c4ccccn4)CC3)CC2)c2cc(Cl)ccc2O1 (stereo unspecified),0.0075,-0.4
NC(=S)Nc1nc2ccccc2s1,nt,1.3
NCCCNC(=O)c1ccco1,0.245,2.5
C[C@@H]1CN(CCCn2c3ccccc3c3ccccc32)C[C@H](C)N1,-0.297,nt
NC(=O)COc1ccc(/C=C2/NC(=O)NC2=O)cc1,1.39,-0.1

Screens (PubChem BioAssay)
